Screening data from PubChem.
TSHR agonist = activates the human thyroid stimulating hormone receptor; P16473; HEK293-CNG-TSHR cells (CNG channel as cAMP sensor), membrane potential dye, cAMP; Potency, µM (titrated, usually from 57.1 µM), for inactives: at the highest dose activation, hits mostly activators; hit rate 0.48% among 73,000; AID 926; active = well fitted activation curve of enough size with the parental cells flat; inconclusive = any curve in the parental cells; inactive = parental cells flat and receptor cells flat or falling; note: potency is the fitted concentration of half-maximal effect; % of control where 0% means no effect; weak receptor curves with flat parental cells got no call and are not listed
Target sequence (P16473 whole entry, looked up): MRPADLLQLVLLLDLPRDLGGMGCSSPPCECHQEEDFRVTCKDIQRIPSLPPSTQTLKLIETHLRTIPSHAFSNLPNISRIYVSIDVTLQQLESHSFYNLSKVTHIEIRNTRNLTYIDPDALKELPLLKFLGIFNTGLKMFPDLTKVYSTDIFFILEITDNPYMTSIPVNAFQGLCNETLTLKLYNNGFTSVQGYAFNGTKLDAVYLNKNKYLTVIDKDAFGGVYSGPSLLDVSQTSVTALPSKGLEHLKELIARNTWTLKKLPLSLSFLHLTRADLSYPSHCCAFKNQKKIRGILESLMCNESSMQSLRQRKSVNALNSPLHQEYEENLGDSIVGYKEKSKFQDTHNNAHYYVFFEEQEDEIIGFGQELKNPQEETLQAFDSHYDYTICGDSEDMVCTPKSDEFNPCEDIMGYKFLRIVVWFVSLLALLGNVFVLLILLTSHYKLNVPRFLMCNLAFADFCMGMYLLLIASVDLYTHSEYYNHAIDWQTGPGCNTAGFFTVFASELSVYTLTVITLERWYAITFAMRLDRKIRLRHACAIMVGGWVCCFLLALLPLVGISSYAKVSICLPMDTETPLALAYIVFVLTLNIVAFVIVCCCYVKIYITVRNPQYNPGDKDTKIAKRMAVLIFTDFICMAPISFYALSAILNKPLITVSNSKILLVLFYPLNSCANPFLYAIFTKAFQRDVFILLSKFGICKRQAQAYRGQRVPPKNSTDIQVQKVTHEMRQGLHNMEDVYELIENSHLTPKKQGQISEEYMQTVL
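HEK 293 cells stably expressing TSHR and a cAMP-gated CNG channel; parental CNG-only cells as counterscreen. Cells preloaded 60 min with membrane potential dye plus 100 uM RO 20-1724, then compound 30 min; fluorescence read at 590 nm.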
A647 autofl = compound fluoresces in the A647 spectral region; Compound fluorescence, A647 channel (570/671 nm), Tris buffer; max dye-equivalent concentration, M; 59,000 tested, under 10 active; active means above 1 µM dye equivalent; inconclusive means 0.1 to 1 µM; inactive means 0.1 µM or less;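 note: values scaled relative to a standard on each plate; highest value over a series up to 38 µM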
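Compounds pinned into 100 mM Tris pH 8.0, 15 min at room temperature, then read with 570 nm excitation/671 nm emission filters. Fluorescence normalized to an on-plate six-point Alexa 647 standard curve, giving dye-equivalent concentration per compound concentration.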
A488 fluor = compound autofluorescence in A488 spectral region; compound autofluorescence, A488 spectral region, dye equivalency; active compounds read high; hit rate 0.1% among 59,000; AID 591; max dye equivalency, M; active = above 10 nM dye equivalent; inconclusive = 1 to 10 nM; inactive = 1 nM or less; about half of its hits are not listed in these tables;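 note: highest value over a series up to 38 µM; compound alone in buffer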
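Compounds pin-transferred into 100 mM Tris buffer, pH 8.0, incubated 15 min at room temperature, then imaged with 480 nm excitation/540 nm emission filters. Fluorescence converted to Alexa 488 dye-equivalent concentration via an on-plate six-point A488 standard curve.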
AID923 = qHTS Assay for Allosteric/Competitive Inhibitors of Caspase-1: Spectroscopic Profiling in AFC Spectral Region. compound fluorescence, AFC spectral region (405/520 nm); almost no hit is shown here. Potency, µM (doses to about 57.5 µM), for the others: at the highest dose fluorescence increase, hits mostly activators. hit rate 1.1% among 75,000. AID 923, 2007; active = well fitted activation curve with a large enough effect; inconclusive = small, poorly fitted or top-dose-only effect;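 note: potency is the fitted concentration of half-maximal effect; 0% is about no effect; scaled to a free AFC standard on each plate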
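Titrations up to 57 uM read every 20 sec for 3 min (405/520 nm) with 50 nM caspase 1 and 5 uM Ac-WEHD-AFC, pH 7.5 HEPES buffer. Fluorescence-vs-time intercept gave baseline, scaled against on-plate AFC standard.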
Resorufin autofl = resorufin region autofluorescence; hit rate 0.04% among 59,000; Compound fluorescence, resorufin region 547/598 nm, buffer; active compounds read high; max dye-equivalent concentration, M; active = above 10 nM dye equivalent; inconclusive = 1 to 10 nM; inactive = 1 nM or less; a few of its hits are not listed in these tables; note: highest value over a series up to 38 µM
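Tris 100 mM pH 8.0; compound added, 15 min RT; CCD imager read, ex 547 nm/em 598 nm; signal normalized to resorufin standard curve (six concentrations per plate) as dye-equivalent concentration.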
Numbers without * were called inactive; i = inactive; u = inconclusive; x = no result given; & = joins results of further samples; [ ] = another dose, or the depositor's remark. Not all compounds are listed; the hit share may differ from the screen's.

canonical_smiles | TSHR agonist | A647 autofl | A488 fluor | AID923 | Resorufin autofl
O=c1nc2n(c3ncccc13)CCC2 | 1.1% | 4.53e-08 | i | 0.5% | i
N#C/C(C(=O)N1CCOCC1)=c1\s/c(=C/c2ccncc2)c(=O)n1-c1ccccc1 | x | 1e-09 | i | 0.3% | i
O=S(=O)(NCc1ccc(Cl)cc1)c1cnc[nH]1 | -2.8% | 1e-09 | i | 0.7% | i
COc1ccc(N2CCN(CCNC(=O)C3CC(=O)N(C4CCCC4)C3)CC2)cc1 (stereo not drawn) | -0.5% | 2.9e-09 | i | -0.1% | i
CCOc1cccc(N)c1 | 2.7% | x | x | 1.2% | x
N#CNC1=NCN(CCc2ccccc2)CN1 | -2.9% | 3.15e-08 | i | -0.9% | i
Cc1nc(N2CCN(Cc3ccccc3)CC2)nc2c1C(=O)CC(c1ccco1)C2 (stereo not drawn) | u | 1e-09 | i | 1.1% | i
COc1ccc(N2CC(C(=O)Nc3ccc(S(=O)(=O)Nc4nc(C)cc(C)n4)cc3)CC2=O)cc1 (stereo not drawn) | 2.4%[11.4 µM] | x | x | 0.7% | x
COCCNC(=O)c1cc2c(=O)n3cccc(C)c3nc2n1C | 3.6% | x | x | 8.8% | x
Cn1c(=O)c(-c2cc(F)cc(F)c2)nc2cnc(N3CCOCC3)nc21 | 2.7% | 1e-09 | i | 11.6% | i
O=C(Nc1ccc(CN2CCCCC2)cc1)c1ccc(Br)o1 | 9.2% | 4.39e-08 | i | -2.1% | i
CCCc1nn(C)c2c1C(c1ccncc1)C(C#N)=C(N)O2 (stereo not drawn) | x | 2.24e-08 | i | 1.2% | i
Cc1ccc(C)c(N2CCN(C(=O)CCCCn3c(=O)[nH]c4ccccc4c3=O)CC2)c1 | u | 1e-09 | i | 1.2% | i
CC1CN(S(=O)(=O)c2cccc(-c3cn4cccnc4n3)c2)CC(C)O1 (stereo not drawn) | 26.3% | 4.6e-09 | i | 1.4% | i
COc1ccc(-c2n[nH]c(C)c2-c2ccc(Cl)cc2)c(O)c1OC | u | 4.63e-08 | i | -0.7% | i
O=C(c1ccccc1)c1c[nH]c2cc3c(cc2c1=O)OCO3 | -1.8% | 8.3e-09 | i | 1.2% | i
Cc1cc(NC(=O)C23CCC(C)(C(=O)O2)C3(C)C)no1 (stereo not drawn) | -11.0% | 3.03e-08 | i | 1.4% | i
COc1ccc(/C(O)=C2/C(=O)C(=O)N(Cc3cccnc3)C2c2ccccn2)cc1 (stereo not drawn) | -3.0% | 3.46e-08 | i | 0.8% | i
CCCS(=O)(=O)N1CCCC(C(=O)NCCCN(CC)c2cccc(C)c2)C1 (stereo not drawn) | -0.9% | 1e-09 | i | 0.3% | i
C=CCn1c(-c2ccccc2)n[nH]c1=S | x | 4.28e-08 | i | x | i

(listing goes on)
canonical_smiles | TSHR agonist | A647 autofl | A488 fluor | AID923 | Resorufin autofl
COc1ccc(CN=CC2=C(O)CC(C)(C)CC2=O)cc1 | 3.8%[11.4 µM] | x | x | 2.4% | x
Cc1cc(C)nc(NC2=NCCN2C(=O)NC2CCCCC2)n1 | x | 1.84e-08 | i | 0.7% | i
COc1ccc(NC(=O)CSc2nnc(Cn3c(=O)sc4ccccc43)n2C)cc1OC | -8.9% | x | x | 1.5% | x
CC1(C)OC(=O)CC1C(=O)NCc1ccccc1 (stereo not drawn) | u | 1.7e-09 | i | -0.7% | i
Cc1onc(-c2ccccc2)c1C(=O)NCCc1c[nH]c2ccccc12 | 0.6% | 2.41e-08 | i | -1.7% | i
COC(=O)c1c(NC(=O)c2ccco2)sc(C(=O)N2CCCC2)c1C | 24.9% | 2.82e-08 | i | 1.1% | i
CC(C)C(OC(=O)c1cc2sccc2n1C)C(=O)NCC1CCCO1 (stereo not drawn) | u | 1e-09 | i | 1.4% | i
O=C(O)CCS(=O)(=O)c1cccc2cccnc12 | x | 5.2e-09 | i | -3.4% | i
Cc1cc2ccccc2nc1SCC(=O)N1CCCC1 | u | 1.7e-09 | i | -1.0% | i
O=C1c2ccccc2NC2(CCCCC2)N1c1ccc(O)cc1 | x | 4.18e-08 | i | 0.1% | i
COc1c(F)c(F)c(-c2csc(N)n2)c(F)c1F | 4.3% | 7e-09 | i | 1.4% | i
CC(C)c1nc2oc3c(N4CCNCC4)ncnc3c2c2c1CCC2 | 5.4% | 3.52e-08 | i | -1.8% | i
COc1ccc(OC)c(CNC(=O)CCN2C(=O)COc3ccccc32)c1 | -2.0% | 3.8e-09 | i | -1.0% | i
CN1CCN(C(=O)c2ccccc2NC(=O)CCN2C(=O)c3ccccc3C2=O)CC1 | x | 1e-09 | i | -0.4% | i
O=C(c1ccccc1)c1ccc(OC(=O)N2CCCC2)cc1 | 1.8% | 1e-09 | i | 0.2% | i
CN1CC[C@@]2(CCCN(C(=O)c3cc(C(F)(F)F)cc(C(F)(F)F)c3)C2)C1 | -0.7% | 1e-09 | i | 0.8% | i
COc1ccc2nc(NC(=O)Cn3cnc4c(=O)n(C)c(=O)n(C)c43)sc2c1 | 3.3% | 1.1e-09 | i | -0.6% | i
COC(=O)[C@@H]1O[C@@H](SCCN)[C@@H](O)[C@H](O)[C@H]1O | 11.7%[11.4 µM] | 1e-09 | i | -2.9%[11.5 µM] | i
O=C(Cn1cnc2ccccc2c1=O)NCCC(=O)N1CCN(c2ccccc2)CC1 | -1.3% | 1.08e-08 | i | 0.5% | i
CC(C)(C)NC(=O)C(c1cccs1)N(CC1CCCO1)C(=O)Cn1nnc(-c2cccs2)n1 (stereo not drawn) | 21.5% | 2.1e-09 | i | -1.0% | i

More structures follow.
canonical_smiles | TSHR agonist | A647 autofl | A488 fluor | AID923 | Resorufin autofl
C=CCN1C(=CCO)[C@H]2C[C@H]3[C@@H]1CC[C@@]31c3ccccc3N3C=C4[C@@H]5N(/C=C/2[C@H]31)c1ccccc1[C@]51CC[C@H]2[C@H]1C[C@@H]4/C(=C/CO)N2CC=C | 11.7%[25.6 µM] | 1.18e-08 | i | 0.6%[25.7 µM] | i
Cc1ccc(NC(=O)CN2C(=O)NC(Cc3ccccc3)C2=O)cc1 (stereo not drawn) | -4.2% | 3.91e-08 | i | -1.2% | i
O=C(Nn1cnnc1)c1ccc(F)c(S(=O)(=O)N2CCCCC2)c1 | 5.0% | 1e-09 | i | 0.8% | i
Cc1cc(NC(=O)CSc2nc3c(c(=O)n2Cc2ccccc2)SC(C)C3)no1 (stereo not drawn) | u | x | x | 3.9% | x
Cc1ccc(S(=O)(=O)c2nc(C)oc2NCc2ccccc2)cc1 | 0.9% | 5.5e-09 | i | 0.9% | i
CCOC(=O)C1CCN(C(=O)CSc2nnc(-c3ccco3)n2-c2ccccc2)CC1 | 4.5% | 6.7e-09 | i | 0.3% | i
O=C(OCC(=O)c1ccc[nH]1)c1ccc(S(=O)(=O)N2CCCCC2)cc1 | 10.7% | 2.42e-08 | i | -0.3% | i
O=C(COc1ccccc1Br)NCc1ccco1 | 10.3% | x | x | 1.3% | x
O=C(Nc1cnccn1)c1csc2ccccc12 | -2.6% | 1.1e-08 | i | -0.6% | i
C=CCn1c(SCC(=O)c2cccs2)nnc1-c1cccc(OC)c1 | 23.1% | 2.7e-09 | i | -1.1% | i
COC(=O)NC/C=C\c1nc(CCCO)co1 | -6.0%[11.4 µM] | x | x | -1.1%[11.5 µM] | x
Cc1cccc(-n2c(SCC(=O)Nc3ccc4c(c3)OCO4)nnc2-c2ccoc2C)c1 | u | 1.19e-08 | i | -0.5% | i
CCCC(=O)C1=C(SCC)CC(C)(C)C(C(=O)OC)C1=O (stereo not drawn) | u | x | x | 6.1% | x
Cc1ccccc1-c1nn2c(-c3ccccc3)nnc2s1 | x | 3.4e-08 | i | x | i
Cc1ccc(S(=O)(=O)N2CCC(C(=O)N[C@@H](Cc3ccccc3)C(=O)O)CC2)cc1 | 22.4% | 1e-09 | i | -0.3% | i
O=C(CCN1CCN(c2ccccc2)CC1)Nc1ccccc1F | u | 2.64e-08 | i | -1.2% | i
O=C(N1CCN(Cc2ccc3c(c2)OCO3)CC1)C12CC3CC(CC(C3)C1)C2 | -3.9%[11.4 µM] | 2.79e-08 | i | -1.3% | i
Brc1ccc(C2=Nn3c(nnc3-c3n[nH]c4c3CCC4)SC2)cc1 | u | 1e-09 | i | -0.2% | i
O=C(NCCN1CCN(c2cccc(Cl)c2)CC1)C1CCCN(S(=O)(=O)c2cnc[nH]2)C1 (stereo not drawn) | -7.3% | x | x | 0.3% | x
CC(C)(C)c1cn(-c2ccccc2)c(=S)[nH]1 | 18.2% | 1e-09 | i | 1.5% | i

More records.
canonical_smiles | TSHR agonist | A647 autofl | A488 fluor | AID923 | Resorufin autofl
CC(=O)c1cccc(NC(=O)c2ccc(S(=O)(=O)N3CCCCC3)cc2)c1 | u | 1e-09 | i | 2.3% | i
CCOc1ccc(OCC(=O)c2c(O)c3ccccc3oc2=O)cc1 | 1.5%[11.4 µM] | 3.28e-08 | i | 3.6% | i
CC(C)N1C(=O)CCC1C(=O)N1CCCc2ccccc21 (stereo not drawn) | 2.6% | 1e-09 | i | -1.6% | i
COCCn1c(-c2ccccc2)nc(=S)c2c1CC(C)(C)OC2 | 18.9% | 2.27e-08 | i | -0.2% | i
CC(Oc1ccc2oc(-c3ccccc3)c(C(=O)O)c2c1)C(=O)O (stereo not drawn) | 0.4% | x | x | 2.9% | x
CCCC(=O)Nc1cc(Cl)ccc1N1CCN(C(=O)CC)CC1 | u | 3.37e-08 | i | -0.7% | i
Cc1cccn2cc(CNC(=O)C3CCCCC3)nc12 | 19.1% | 1e-09 | i | 0.9% | i
COc1ccc(-c2noc(-c3cc(C)cc(C)c3)n2)cc1OC | 3.1% | x | x | 1.7% | x
O=C(COC(=O)c1ccccn1)c1ccc(Br)cc1 | 3.2%[11.4 µM] | x | x | -0.6% | x
Cc1ccc(S(=O)(=O)N[C@H]2COC(=O)[C@@H](Cc3ccccc3)NC(=O)[C@@H](C)COC(=O)C/C=C\[C@@H]2C)cc1 | -0.3%&21.8%[11.4 µM] | x | x | 4.1%&1.2%[11.5 µM] | x
CC1CN(S(=O)(=O)c2ccc(-c3nc4ccccc4s3)cc2)CC(C)O1 (stereo not drawn) | 8.4% | 1e-09 | i | 0.6% | i
C=CCOc1ccccc1CN1CCSCC1 | 18.4%[11.4 µM] | x | x | -2.8% | x
O=C(Nn1c(-c2ccccc2)nc2ccccc2c1=O)C1CCC1 | -0.6% | 2.8e-09 | i | -0.1% | i
COc1ccc(CCNC(=O)C2CC(=O)N(c3ccc(F)cc3)C2)cc1OC (stereo not drawn) | u | x | x | 2.6% | x
COc1ccc(NC(=O)NCc2cccn2C)c(OC)c1 | 20.0% | 1.67e-08 | i | 1.4% | i
CCOc1ccc(C(=O)NCc2cccs2)cc1 | 6.1% | 1e-09 | i | -0.3% | i
CCOC(=O)c1cccc(NC(=O)CCc2c(C)nc3ncnn3c2C)c1 | -1.1% | 1e-09 | i | 1.4% | i
CCOC(=O)C(C)NC(=O)C(NC(=O)C1CCC(CC)CC1)C(C)C (stereo not drawn) | 11.4% | 2.33e-08 | i | 0.5% | i
Cc1nc2c(nnn2Cc2ccccc2)c(=O)n1-c1ccccc1 | 9.3% | 1e-09 | i | 0.6% | i
CO[C@H]1COC(=O)[C@H]2CCCN2C(=O)[C@@H](C)COC(=O)C/C=C\[C@@H]1C | 1.9%[11.4 µM] | x | x | 1.7%[11.5 µM] | x
CCOCCCn1cnc2c(c1=O)c1nc3ccccc3nc1n2-c1ccccc1 | 0.5%[11.4 µM] | 2.59e-08 | i | 2.0% | i

An excerpt from above in order of the AID923 value, highest first:
Molecule	AID923
CCOc1ccc(OCC(=O)c2c(O)c3ccccc3oc2=O)cc1	3.6%
O=C(Nn1c(-c2ccccc2)nc2ccccc2c1=O)C1CCC1	-0.1%
CC(C)N1C(=O)CCC1C(=O)N1CCCc2ccccc21 (stereo not drawn)	-1.6%
